# Source: PubChem (National Center for Advancing Translational Sciences (NCATS))
# gsp antagonist = gsp mutant antagonism. 340,000 tested, 0.4% active. Potency, µM (top dose mostly 76.9 µM), without a hit: at the highest dose activity change, negative = inhibition, actives largely listed as inhibitors. AID 624288. gsp-mutant cells, cAMP HTRF, 30 min; control for the full effect not named in the record; active = falling curve of any shape with a large fitted effect; inconclusive = falling curve, mostly with a smaller effect; inactive = flat or rising curve; cell line not stated here;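 further: intracellular cAMP measured with PDE inhibitor Ro 20-1724 present during compound exposure; potency means the concentration at half of the fitted maximal effect; on the % scale 0 is the no-effect control and ±100 the full control effect; nearly all actives have a fitted effect of over 65% in size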
#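 Cells in G418 medium, seeded 16-24 h, 37C; buffer exchange to DPBS + 1 mM CaCl2, 0.5 mM MgCl2, 0.05% BSA; cpds in DMSO + […] (300 uM stock), 30 min 37C; HTRF cAMP detection.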
# ClpP mod = qHTS Assay for Activators of ClpP | purified B. subtilis ClpP, FRET peptide cleavage, 20 min | Potency, µM (highest dose often 57.5 µM), without a hit: at the highest dose activity change, negative = active | 340,000 tested, 1.9% active | AID 651965, 2013; active = well fitted falling curve with a large enough effect; inconclusive = small, poorly fitted or top-dose-only effect; inactive = no such curve, though single readings can be large or run the other way; further: potency means the concentration at half of the fitted maximal effect; the source files actives as falling curves though it sought activators and does not explain the sign; nearly all actives have a fitted effect of over 65% in size; many hits overshoot -100%
# Target sequence (P80244 whole entry, looked up): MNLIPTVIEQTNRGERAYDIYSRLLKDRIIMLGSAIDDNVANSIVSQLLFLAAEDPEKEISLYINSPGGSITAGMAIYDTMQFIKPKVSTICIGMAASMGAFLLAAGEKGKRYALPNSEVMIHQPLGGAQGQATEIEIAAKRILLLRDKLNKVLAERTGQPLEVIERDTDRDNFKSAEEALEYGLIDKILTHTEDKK
#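 Buffer: 100 mM Tris/HCl pH8, 100 mM KCl, 0.05% low protease BSA, 2.5% glycerol, 0.01% Tween-20. ClpP 10 microg/mL final; 20 min RT; delta FRET normalized to ADEP and DMSO controls.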
# gsp agonist = agonists of gsp mutant (McCune-Albright syndrome). gsp mutant cells, cAMP HTRF, 30 min; control for the full effect not named in the record. Potency, µM (top dose mostly 76.9 µM), inactives show at the highest dose activation (cAMP increase), actives largely listed as activators. 340,000 tested, 0.13% active; active = well fitted activation curve with a large enough effect; inconclusive = small, poorly fitted or top-dose-only effect, or another doubt; inactive = no such curve, though single readings can be large or run the other way; cell line not stated here;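 further: phosphodiesterase inhibitor Ro 20-1724 added with compounds to block cAMP breakdown; potency means the concentration at half of the fitted maximal effect; nearly all actives have a fitted effect of over 60% in size; about a fifth of the inactives were tested at one dose only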
#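 Cells stably selected in G418 were plated at 2000/well, grown 16-24 hr, then given compounds in DMSO with the PDE inhibitor […] (300 uM solution added) for 30 min at 37C; cAMP was read by HTRF.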
# PINK1 modulator = modulators of PINK1 expression; PINK1 immunofluorescence, high-content cytometry, 24 h; Potency, µM (series often up to 76.6 µM), for inactives: top-dose activation (PINK1 increase), most hits filed as activators; 410,000 tested, 0.2% active; AID 624263; active = well fitted activation curve with a large enough effect; inconclusive = small, poorly fitted or top-dose-only effect; inactive = flat fitted curve, though single readings scatter; cell line not stated here;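 further: potency means the concentration at half of the fitted maximal effect; % of control where 0% means no effect; nearly all actives have a fitted effect of over 65% in size; a mitochondrial uncoupler was the plate control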
#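 Decision-based qHTS: stable cells, 24 h exposure to five compound concentrations, CCCP as control. Fixed cells stained for PINK1 plus nuclear, mitochondrial and cell markers, cytometer read.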
# Menin-MLL FL inh = inhibitors of human menin-MLL interaction, wild-type MLL peptide | Fluorescence polarization, fluorescein-MLL peptide displacement from menin | FP activity change, % at 61.4 µM | 290,000 tested, under 10 active | AID 1766; inconclusive = falling polarisation curve, or a change in total fluorescence; inactive = total fluorescence flat and polarisation flat or rising; no compound was filed as active; the % refers to the polarisation; negative = inhibition;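 further: % of control where 0% means no effect; inhibitors lower the polarisation; unlabelled MLL peptide was the positive control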
# D2 ag = human D2 receptor agonism in beta-arrestin assay | P14416 | DiscoveRx PathHunter D2 beta-arrestin, luminescence, 90 min; 100% = 57 uM dopamine signal | activation, % (test concentration not listed) | 360,000 tested, 0.084% active; in the data active = activation above about 40%; inconclusive = about 15% to 40%; inactive = below about 15%; further: compound concentration not given in the record; the text of the record calls up to 30% inactive
# Target sequence (P14416 whole entry, looked up): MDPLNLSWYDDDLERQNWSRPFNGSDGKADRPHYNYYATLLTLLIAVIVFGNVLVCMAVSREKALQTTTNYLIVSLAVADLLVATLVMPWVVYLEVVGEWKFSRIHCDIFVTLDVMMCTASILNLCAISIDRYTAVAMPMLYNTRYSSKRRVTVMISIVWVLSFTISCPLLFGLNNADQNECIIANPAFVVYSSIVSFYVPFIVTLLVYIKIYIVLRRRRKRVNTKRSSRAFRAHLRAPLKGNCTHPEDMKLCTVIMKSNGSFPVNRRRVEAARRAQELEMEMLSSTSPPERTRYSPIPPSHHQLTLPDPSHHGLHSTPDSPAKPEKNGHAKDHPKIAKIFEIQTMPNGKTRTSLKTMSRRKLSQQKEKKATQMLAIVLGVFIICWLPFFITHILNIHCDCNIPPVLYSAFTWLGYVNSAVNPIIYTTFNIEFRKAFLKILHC
#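 Agonist mode: compounds alone added to overnight-plated D2 PathHunter cells for 90 min at 37 C, with 57 uM final dopamine (EC100) defining full response. Beta-arrestin recruitment detected by chemiluminescent reagent, read after 1 h at ambient temperature.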
# Sfp PPTase inh = Sfp phosphopantetheinyl transferase inhibition; Biochemical Sfp PPTase activity, qHTS; Potency, µM, for inactives: max response, negative = inhibition, most hits filed as inhibitors; 310,000 tested, 3.5% active; active means well fitted inhibition curve with a large enough effect; inconclusive means small, poorly fitted or top-dose-only effect, or another doubt; inactive means no such curve, though single readings can be large or run the other way;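 further: the enzyme is Sfp with the accession as filed and its product quenches rhodamine fluorescence; potency means the concentration at half of the fitted maximal effect; 0% = enzyme reaction without inhibitor and -100% = no enzyme wells; top concentration of the series not given in the record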
#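 Reaction rates are the 30-min fluorescence difference (ex 525, em 598 nm) in wells containing 15 nM Sfp, 5 uM rhodamine-CoA and 12.5 uM BHQ-2-YbbR at pH 7.6 with 10 mM MgCl2.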
# * marks the source's active call; other numbers are inactive results; ? = inconclusive; · = no result given; & = joins results of further samples; [ ] = remark or other dose.
SMILES,gsp antagonist,ClpP mod,gsp agonist,PINK1 modulator,Menin-MLL FL inh,D2 ag,Sfp PPTase inh
COc1ccc(N2CCN(S(=O)(=O)CCNC(=O)/C=C/c3ccccc3)CC2)cc1,5%,2.7%,1%,3.2%,·,0.9,·
O=C(Cc1cccc2ccccc12)Nc1cc(C(=O)O)cc(C(=O)O)c1,7%,0.0%,-16%,-0.8%,-3.5,2.4,25%
CC(C)Nc1nc(SC(C)C(=O)Nc2ccccc2)nc(N(C)C)n1 (stereo unspecified),-20%,·,3%[15.4 µM],6.3%,-3.6,-1.3,1%
C=C(C)[C@H]1CC=C(C)/C(=N/NC(=O)CNc2ccccc2OC)C1,4%,0.9%,-8%,5.5%[38.3 µM],0.4,-0.7,0%
O=C(CC(c1ccccc1)c1cc(Cl)ccc1O)NCCCN1CCOCC1 (stereo unspecified),5%,-1.7%,-3%[15.4 µM],0.1%,-1.1,-4.5,4%
CN(C)S(=O)(=O)c1cc(NC(=O)COC(=O)Cc2cccc3ccccc23)ccc1Cl,-2%,-1.8%,11%[15.4 µM],-0.1%,7.1,-11,15%
CC1CC(C)CN(CCC(=O)Nc2cccc(Cl)c2)C1 (stereo unspecified),17%,1.0%,2%,-3.7%,2.9,0.0,-5%
CCOc1ccc(OCCC(=O)Nc2ccc(N3CCOCC3)cc2N2CCOCC2)cc1,·,1.1%,8%,1.4%,·,-9.3,·
C#Cc1ccc(C(=O)Nc2ccc(N3CCC(C)CC3)c(C(N)=O)c2)cc1,2%,-0.7%,?,2.4%,-2.1,-1.4,16%
CCOc1ccc(S(=O)(=O)N2CCOCC2)cc1NC(=O)CSCC(=O)Nc1ccc(C)cc1,-1%,1.4%,10%,0.8%,·,-2.5,14%
CCn1c(SCC(=O)Nc2cc3oc4ccccc4c3cc2OC)nnc1-c1cccs1,-12%,-4.2%,-20%,-4.9%[38.3 µM],-3.3,12,5%
O=C(Nc1cccc2ccccc12)c1cccc([N+](=O)[O-])c1,-10%,-0.2%,?,0.4%,-11,-2.5,9%
O=C(Cc1ccc(Cl)c(Cl)c1)Nc1ccc(SC(F)F)cc1,-15%,-1.5%,-57%[inhibitor],?,2.9,2.6,9%
C/C(=N\NS(=O)(=O)c1ccc(C)c([N+](=O)[O-])c1)c1cc2ccccc2o1,?,-5.4%,0%,·,-3.1,-3.3,15%
COc1ccc(Cc2nc3ccc(C(=O)N(C)CCn4ccnc4)cc3o2)cc1OC,14%,0.5%,-26%,2.2%,-1.3,-1.6,12%

# By substructure: the compounds so far containing a furan ring, fused or not (2)
SMILES,gsp antagonist,ClpP mod,gsp agonist,PINK1 modulator,Menin-MLL FL inh,D2 ag,Sfp PPTase inh
CCn1c(SCC(=O)Nc2cc3oc4ccccc4c3cc2OC)nnc1-c1cccs1,-12%,-4.2%,-20%,-4.9%[38.3 µM],-3.3,12,5%
C/C(=N\NS(=O)(=O)c1ccc(C)c([N+](=O)[O-])c1)c1cc2ccccc2o1,?,-5.4%,0%,·,-3.1,-3.3,15%

# Following part:
SMILES,gsp antagonist,ClpP mod,gsp agonist,PINK1 modulator,Menin-MLL FL inh,D2 ag,Sfp PPTase inh
O=C(Cn1cccc1C(=O)c1ccccc1)NCCC1=CCCCC1,·,·,-7%[15.4 µM],-0.4%,0.5,-0.4,-11%
OCCN1CCN(C(=S)Nc2cccc(C(F)(F)F)c2)CC1,7%&-1%,-0.8%,3%&3%,-0.7%&-0.8%,3.9,-4.4&-1.7,-24%
C[C@H](CO)N1C[C@H](C)[C@@H](CN(C)Cc2ccc(Cl)c(Cl)c2)OCCCC[C@H](C)Oc2ccc(NC(=O)CCC(F)(F)F)cc2C1=O,·,-2.2%,-15%,0.0%,·,-0.4,·
CCC1(c2ccc(F)cc2)NC(=O)N(CC(=O)Nc2ccccc2C)C1=O (stereo unspecified),13%,1.4%,-8%[15.4 µM],-0.2%,·,-3.8,7%
CC(Oc1cccc(Cl)c1)C(=O)Nc1cc(Cl)ccc1N1CCOCC1 (stereo unspecified),-16%,-0.5%,-18%[15.4 µM],5.0%,·,4.1,·
Clc1ccc2c(c1)nc1n2CCCC1,-10%,0.7%,-35%[inhibitor],0.6%,0.1,-7.0,2%
COc1ccc(-c2ccc3nnc(SCC(=O)Nc4ccc(NC(C)=O)cc4)n3n2)cc1,5%,-13%,2%,27%,·,0.2,·
Cc1cc(C)n(C(=O)/C(C#N)=N/Nc2cc(Cl)cc(Cl)c2)n1,?,-1.0%,-28%,25µM*,1.0,6.6,10%
Cc1ccc(OCCCC(=O)Nc2ccc(S(=O)(=O)Nc3cc(C)nc(C)n3)cc2)cc1,-8%,-1.6%,-25%,1.9%,-7.3,-3.2,5%
Cc1ccc(OCC(=O)Nc2ccc(S(=O)(=O)Nc3onc(C)c3C)cc2)cc1,-18%,1.6%,2%,-3.7%,4.0,1.1,12%
CC1(C)C(=O)Nc2ccccc2N1C(=O)COC(=O)CSc1ccc(Cl)cc1,-9%,-1.9%,?,3.3%,·,-5.8,·
O=S(=O)(Nc1ccccc1O)c1ccc(-c2ccccc2)cc1,-3%,-0.3%,15%,2.5%,0.0,5.5,5%
CC1CCCC(NC(=O)C2c3ccccc3C(=O)N2Cc2cccs2)C1C (stereo unspecified),-1%,2.2%,-2%[15.4 µM],0.9%,0.3,-1.5,18%
O=C(Nc1nncs1)C1CC(=O)N(CCc2ccc(F)cc2)C1 (stereo unspecified),-15%,·,15%,0.8%,2.1,0.1,-1%
Cc1ccc(-c2c3c(=O)n(C)c(=O)n(C)c3cn2N2CCOCC2)cc1,-7%,-10%,-1%,3.6%,-0.6,2.4,6%
CCCCOC(=O)/C=C/c1ccc(OC(=O)OC)c(OC(=O)OC)c1,0%,-3.1%,-12%,0.7%,-0.6,3.3,-2%
CCCCN(C(=O)c1cc(S(=O)(=O)N2CCCCC2)ccc1Cl)c1c(N)n(CCC)c(=O)[nH]c1=O,7%,1.2%,10%,0.1%,·,-1.1,·
C=CCOc1ccccc1C1C2=C(CC(C)(C)CC2=O)Nc2c1c(=O)n(C)c(=O)n2C (stereo unspecified),5%,28µM*,-18%,1.3%,-0.9,1.8,8%
Cc1ccc(NC(=O)c2sc3ncn(CC(=O)N4CCN(c5ccccn5)CC4)c(=O)c3c2C)cc1,·,-1.4%,-5%,0.5%,·,2.1,·
COc1ccc(-c2cc(C(F)(F)F)n3nc(C(=O)N4CCOCC4)nc3n2)cc1,-15%,-19%,-40%,3.6%,2.5,-1.3,15%
C/C=C/C(=O)Nc1nnc(-c2ccccc2C)s1,-5%,4.4%,-33%[inhibitor],0.4%,-14,-4.4,14%
CCC(CO)NCc1ccc2c(c1)n(C)c(=O)n2C (stereo unspecified),9%,-1.9%,8%,2.0%,0.4,-0.3,18%
CC1CCN(S(=O)(=O)N2CCC(C(=O)NCc3cccs3)CC2)CC1,5%,-7.3%,-69%,3.5%,-3.8,-2.5,13%
Cn1c(=O)c2c(nc(SCCN3CCCCC3)n2C)n(C)c1=O,3%,-1.0%,28%[15.4 µM],-0.6%,-1.0,-1.6,20%
C[N+]1(C)CC2([N+](=O)[O-])CC=C(Oc3ccccc3)C([N+](=O)[O-])(C2)C1 (stereo unspecified),20%,1.0%,-6%[15.4 µM],1.6%,0.9,-6.8,-11%
CCS(=O)(=O)c1nc(S(=O)(=O)c2ccc(C)cc2)c(N2CCN(CCO)CC2)s1,-10%,-1.1%,?,-1.8%,·,-5.5,7%
CCn1c(CSc2nc3ccccc3s2)nnc1SCC(=O)c1ccc(O)cc1O,4%,-7.5%,-55%[inhibitor],·,-1.9,-1.2,20%
O=C(NCc1ccc(Cl)cc1)c1n[nH]c([N+](=O)[O-])c1Cl,?,0.7%,14%,7.3%,2.2,-2.5,-36%
COc1ccc(CC(=O)OCc2cc(=O)n3cc(Br)ccc3n2)cc1OC,11%,·,3%[15.4 µM],4.4%,0.3,0.6,20%
Cn1nnnc1SCC(=O)c1ccc(Br)s1,5%,-0.5%,?,-0.4%,0.7,-4.3,-49%
CCN(CC)c1ccc2c(c1)oc(=O)c1c(Cl)cc(=O)oc12,?,69%,?,0.3%,?,-5.0,-7%
CCc1nnc(NC(=O)CSc2nc3cccnc3n2C2CCCCC2)s1,?,0.1%,6%,0.5%,5.1,-2.8,-12%
CCOc1cc(CNc2ccc(N3CCCCC3)cc2)cc(Br)c1OCC(=O)NC(C)(C)C,-9%,0.9%,-2%,14µM*,1.6,5.5,-46%
Cc1cccc2nc(-c3ccco3)oc(=O)c12,-3%,·,-14%[15.4 µM],1.4%,-2.0,1.1,16%
COC(=O)c1ccc([C@@H]2C[C@H]3CN(Cc4cccnc4)C(=O)[C@]34CCCN24)cc1,0%,·,13%[15.4 µM],0.3%,-0.6,0.5,1%
Cc1ccccc1S(=O)(=O)N1CCN(c2ccc3c(c2)C2CC3CCN2C(=O)OCc2ccccc2)CC1 (stereo unspecified),·,-1.0%,·,-0.4%,·,-6.0,·
CNc1ccc(/C=C(\C#N)c2ccccn2)cc1[N+](=O)[O-],4%,0.2%,-8%[15.4 µM],1.5%,-15,-1.7,1%
CC1CCN(c2ccc3nnc(CCC(=O)Nc4ccc(F)cc4)n3n2)CC1,-2%,-1.3%,3%,0.8%,-0.1,-3.5,-5%
c1cc(-c2ccc(N3CCOCC3)cc2)n2ccnc2c1,·,4.5%,·,0.1%,·,0.9,·
CC(C)Cn1c(N)c(/C=N/NC(=O)c2ccc(Cl)cc2)c(=O)n(C)c1=O,·,·,1%[15.4 µM],0.3%,3.3,0.4,10%
CCc1ccc(/C=C(\Cl)c2nc3cc(Cl)ccc3c(=O)[nH]2)cc1,15%,-10%,-2%,3.9%,1.0,1.1,6%
Cc1cc[n+](-c2[nH]c(=O)sc2/C=N/N=C(\[O-])c2ccncc2)cc1,2%,0.6%,-2%,-0.5%,·,1.2,-10%
COCCCNC(=O)Cn1nnc(-c2ccccc2NC(=O)c2ccccc2F)n1,-17%,0.7%,-24%,?,-1.1,-1.3,4%
Cc1cccc(NCCC#N)c1,15%,-0.7%,2%,-0.5%,-0.2,0.5,24%
